# Source: PubChem (National Center for Advancing Translational Sciences (NCATS))
# VDR inh: Inhibitors of the vitamin D receptor (VDR): qHTS | VDR-SRC2-3 peptide fluorescence polarization, 2 h | Potency, µM, for inactives: max response, negative = inhibition, usual class: inhibitors | 0.93% of 400,000 active | AID 504847, 2011; active = well fitted inhibition curve with a large enough effect; inconclusive = small, poorly fitted or top-dose-only effect, or another doubt; inactive = no such curve, though single readings can be large or run the other way; note: series mostly up to about 120 µM
# Target sequence (P11473 whole entry, looked up): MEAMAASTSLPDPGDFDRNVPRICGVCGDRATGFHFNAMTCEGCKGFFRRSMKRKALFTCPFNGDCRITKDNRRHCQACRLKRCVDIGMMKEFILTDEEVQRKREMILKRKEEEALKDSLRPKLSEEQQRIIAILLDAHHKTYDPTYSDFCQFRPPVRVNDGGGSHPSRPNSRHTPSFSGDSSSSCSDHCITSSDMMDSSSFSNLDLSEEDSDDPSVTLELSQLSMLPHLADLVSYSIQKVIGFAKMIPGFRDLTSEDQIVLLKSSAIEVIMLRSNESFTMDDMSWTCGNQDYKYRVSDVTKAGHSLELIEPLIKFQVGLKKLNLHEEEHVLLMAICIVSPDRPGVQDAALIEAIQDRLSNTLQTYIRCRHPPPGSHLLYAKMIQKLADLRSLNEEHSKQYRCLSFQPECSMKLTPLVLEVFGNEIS
#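 Inhibition of the VDR/SRC2-3 peptide interaction is quantified by fluorescence polarization. Compounds (23 nl, pintool) incubate with the reagents for 2 hours at ambient room temperature.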
# The depositor's hits bear a star; ? = inconclusive; & = joins results of further samples; [ ] = remark or other dose. % is set by controls: 0 for no effect and ±100 for the full control effect; potency is the fitted concentration of half-maximal effect. A portion of the library, so the mix of outcomes need not match the whole.
smiles,VDR inh
CC(/C=N/NC(=O)C(O)c1ccccc1)=C\c1ccccc1 (centres undefined),2%
COc1ccc(NC(=O)CSc2ccc3nnc(CCNC(=O)c4ccccc4)n3n2)cc1,-22%
COc1ccc(NC(=O)Cn2c(=O)c3cccn3c3ccccc32)cc1,7%
COCCNC(=S)N1CCC(NC(=O)C23CC4CC(CC(C4)C2)C3)CC1,-27%
COc1ccc(CNCc2cccc3ccccc23)cc1,-11%
CN(C)C(=O)CSc1ccc(S(=O)(=O)N2CCOCC2)cn1,5%
CCOc1ccc(CCNC(=O)CS(=O)Cc2nc(-c3ccc(OC)cc3)oc2C)cc1OCC (centres undefined),-7%
Cc1ccc(O)c(N=Cc2cccs2)c1,-21%
Cc1cn(CC2COC(C)(C)O2)c(=O)[nH]c1=O (centres undefined),-24%
Cc1ccccc1C(=O)OCC(=O)NCC1COc2ccccc2O1 (centres undefined),-27%
O=C(/C=C/c1cccc([N+](=O)[O-])c1)NCCSCc1ccco1,-2%
O=c1[nH]c(/C(Cl)=C/c2cc(Cl)ccc2O)nc2cc(Cl)ccc12,6%
CCOC(=O)C1(CCOc2ccccc2)CCN(Cc2cccn2-c2cccnc2)CC1,-4%
Cc1ccc(NS(=O)(=O)c2ccc(CCC(=O)N3CCOCC3)cc2)cc1,-1%
COc1ccc2c(CNCCc3ccco3)c(C(=O)O)n(Cc3ccc(F)cc3)c2c1,-3%
O=c1cc(N2CCCCC2)nc2n1CCCS2,15%
COc1cc(/C=N/n2nnnc2N)ccc1OC(C)C,-4%
Cc1c(C)c2ccc(OC(C)C(=O)NC3CCN(Cc4ccccc4)CC3)cc2oc1=O (centres undefined),-1%
CNC(=O)c1cc(NC(=O)N(CCC#N)CCN(C(=O)NC(Cc2ccccc2)C(=O)NC(CC(C)C)C(=O)NC)c2ccccc2)ccc1OC (centres undefined),-3%
COc1ccc(CNC(=O)CCCn2nc([N+](=O)[O-])cc2C)cc1,-21%
CC(C)(C)c1ccc(S(=O)(=O)N2CCN(C(=O)c3ccc4c(c3)C(=O)N(Cc3ccncc3)C4=O)CC2)cc1,4%
CC(C)(C)c1ccc(C(=O)Nc2nnc3n2CCS3)cc1,-2%
O=C(CN1CCCN(S(=O)(=O)c2ccc(F)cc2)CC1)Nc1ccccc1Br,0%
CCOc1ccc(NC(=S)Nc2ccc(C)c([N+](=O)[O-])c2)cc1,-4%
O=C(CNC(=O)c1cc(Cl)cc([N+](=O)[O-])c1)OCC(=O)N1CCCCC1,1%
CC(=NNC(=S)N1CCCCCC1)c1cccc2cccnc12,?
O=S(=O)(c1cccc2cccnc12)n1cnc2ccccc21,7%
COc1ccc(S(=O)(=O)N2CCCCC2)cc1NC(=O)C1CCCC1,-9%
Cc1cc(C)n(-c2nncc(-c3ccccc3)n2)n1,1%
OC(CNC1CCCC1)COc1ccccc1Br (centres undefined),-11%
O=C(C1CCCN(c2ncnc3c2nc2n3CCCCC2)C1)N1CCN(c2ccccc2F)CC1 (centres undefined),1%
O=C(CCc1ccc(S(=O)(=O)N2CCOCC2)cc1)OCC(=O)c1ccccc1F,13%
Cc1ccc(S(=O)(=O)C(CNC(=O)C(=O)NCCc2ccc(Cl)cc2)c2ccco2)cc1 (centres undefined),-1%
CCn1c(SCC(=O)Nc2ccc(S(N)(=O)=O)cc2)nnc1-c1ccccc1OC,0%
COC(=O)COc1cccc(NC(=O)c2ccc(C)cc2)c1,5%
CC(=O)Oc1ccc2c(C)c(CC(=O)N3CCN(C(=O)C4COc5ccccc5O4)CC3)c(=O)oc2c1C (centres undefined),4%
Cc1ccc(S(=O)(=O)N2CCOCC2)cc1C(=O)OC(C)C(=O)NC1CCCC1 (centres undefined),17%
CC(C)(C)c1nc(SCC(=O)c2ccccc2)c2ccccc2n1,3%
Cc1ccc(-c2cnc(NC(=O)CCC(=O)N(C)Cc3ccccc3)n2C)cc1,-1%
CCc1nnc(N/N=C/c2ccccc2F)n1N,-7%
CC(=O)NNC(=O)N1Cc2ccccc2Oc2ccc(Cl)cc21,-1%&3%&-7%
CCOc1ccc(N(CC(=O)Nc2cccc(C)c2C)S(=O)(=O)c2c(C)[nH]c(=O)[nH]c2=O)cc1,-31%
CC1CCCC(NC(=O)CN2C(=O)NC(c3ccccc3)(c3ccccc3)C2=O)C1C (centres undefined),19%
CCOC(=O)c1sc(N)c(C#N)c1CSc1nc2ccc(OCC)cc2[nH]1,-3%
Fc1ccc(N2CCN(c3nc(-c4ccco4)cc(C(F)(F)F)n3)CC2)cc1,-4%
O=C(CSc1nnc(-c2ccccc2Br)o1)Nc1cccc2ccccc12,-8%
COc1ccc(CN2CCCN(S(=O)(=O)c3ccc(Br)cc3)CC2)cc1,-23%
CCOc1cc(CNc2ccc3c(c2)OCCO3)cc(Br)c1OC,32%[activator]
CCCn1c(N)c(C(=O)CSc2nc3ccccc3c(=O)n2-c2ccc(OC)cc2)c(=O)[nH]c1=O,-1%
CCN(CC(=O)Nc1ccc(OC)cc1)C(=O)c1ccc(OCc2c(C)noc2C)cc1,9%

# Rewritten with the structure last: entries from further up
VDR inh	molecule
-3%	CCOC(=O)c1sc(N)c(C#N)c1CSc1nc2ccc(OCC)cc2[nH]1
-4%	Fc1ccc(N2CCN(c3nc(-c4ccco4)cc(C(F)(F)F)n3)CC2)cc1
-8%	O=C(CSc1nnc(-c2ccccc2Br)o1)Nc1cccc2ccccc12
-23%	COc1ccc(CN2CCCN(S(=O)(=O)c3ccc(Br)cc3)CC2)cc1
32%[activator]	CCOc1cc(CNc2ccc3c(c2)OCCO3)cc(Br)c1OC
-1%	CCCn1c(N)c(C(=O)CSc2nc3ccccc3c(=O)n2-c2ccc(OC)cc2)c(=O)[nH]c1=O
9%	CCN(CC(=O)Nc1ccc(OC)cc1)C(=O)c1ccc(OCc2c(C)noc2C)cc1

# Additional structures follow.
smiles,VDR inh
COc1ccccc1NC(=O)Nc1ccc(C(=O)N2CCCCC2)cc1,-10%
O=C1CCCN1CC(CN1CCOCC1)Sc1nc2ccccc2c(=O)n1-c1ccccc1 (centres undefined),18%
CC(=O)c1cn(CC(=O)Nc2ccccc2C(F)(F)F)c2ccccc12,-39%
CCc1ccc(S(=O)(=O)c2nnn3c2nc(NC2CCCC2)c2sccc23)cc1,2%
COc1ccc(C(=O)N2CCN(c3nc(C4CC4)nc4sc(C)c(C)c34)CC2)cc1,2%
COc1cc(/C=C2/SC(=S)NC2=O)ccc1OS(=O)(=O)c1ccc(C)cc1,50µM*
COc1ccc(C(=O)NC2CCCCCCC2)cc1OC,-12%
COc1ccccc1NC(=O)CSc1cn(CC(=O)N2CCCC2)c2ccccc12,5%
COc1ccc2c(c1)C(CC(=O)NN)CCC2 (centres undefined),5%
Cc1ccc(S(=O)(=O)N(CC(=O)Nc2cc(C)ccc2C)C(=O)N2CCN(C)CC2)cc1,-5%
CCCC/C(C)=N/NC(=O)C(=O)NCCc1ccccc1,-3%
CCc1c(C)c2ccc(OCC(=O)OC)cc2oc1=O,24%
CC(C)c1ccc(NC(=O)CCNC(=O)Cn2cnc3ccccc3c2=O)cc1,1%
Cc1nonc1NC(=O)CSc1nc2c(C)cccc2cc1C#N,-3%
COc1ccc(CCNC(=O)C/C(C)=N/NC(=O)COc2ccc(C)cc2Br)cc1OC,-18%
COc1ccc(/C(C)=N/NC(=O)c2cccc(S(=O)(=O)N3CCCC3)c2)c(O)c1,-7%
CN(C)C(=O)CSc1nnc(-c2cccnc2)n1-c1ccccc1,-11%
CN1CCc2c(sc3nc(SCC(=O)N4CCOCC4)nc(N)c23)C1,25%
Cc1ccc(CCNC(=O)c2ccc3nc4ccc(Cl)cc4c(=O)n3c2)cc1,-12%
COc1ccccc1N1CCN(C(=O)CC(NC(=O)c2ccccc2Cl)c2ccccc2)CC1 (centres undefined),-11%
CCC[C@@H](CN1CCC[C@H]1CN1C(N)=NC[C@H]1CC(C)C)N1C[C@@H](Cc2ccccc2)N(CCCC2CCCC2)C1=N,20%
O=C1C(Cc2ccccc2)NC(=S)N1c1ccccc1 (centres undefined),-5%
CCc1ccc(-n2c(=O)c3c(C)c(C)sc3n(CC(=O)NCc3ccc(C)cc3)c2=O)cc1,4%
Cc1ccc(S(=O)(=O)N2CCN(S(=O)(=O)N(C)C)CC2)c(C)c1,-13%
CC(C)CCNC(=O)c1ccc(CSCc2cccc(F)c2)o1,-12%
Nn1c(Cc2cccc3ccccc23)nnc1SCc1ccccc1,-10%
O=S(=O)(Oc1ccccc1N1CCCCC1)c1ccccc1,-9%
C/C(=N\NC(=O)c1nn(C)c(C)c1Br)c1ccc(NC(=O)c2ccoc2C)cc1,-24%
COc1cccc(C(=O)OCC(=O)Nc2ccc3c(c2)OCCO3)c1,8%
CCN1C(=O)/C(=C2/C=CC=CN2C)SC1=S,-14%

# More structures follow.
Structure | VDR inh
COc1ccc(OCc2cc(C(=O)N(C)Cc3cc(C)no3)no2)c(Cl)c1 | -11%
COc1ccc(Br)cc1/C=C(\C(=O)O)c1ccc(S(=O)(=O)N2CCCC2)s1 | -19%
Cc1ccc(C(=O)N2CCC3(CC2)NCCc2[nH]cnc23)cc1 | 7%
COc1ccc(-c2nc(C)c(CCNC(=O)c3ccc(F)c(F)c3)s2)cc1 | 9%
O=C(CSc1n[nH]c(-c2cccs2)n1)N1CCN(S(=O)(=O)c2ccccc2)CC1 | 20%
Cn1nc(NC(=O)CC(C)(C)CC(=O)O)c2ccccc21 | 9%
Cc1cc(C(=O)CN2CCN(CC(=O)Nc3ccc(F)cc3)CC2)c(C)n1C1CC1 | -1%
CCOC(=O)C1=C(CC)Nc2ccccc2N/C1=N\S(=O)(=O)c1ccccc1F | 2%
CC(=O)CSc1nnc2c3ccccc3nc(C(C)(C)C)n12 | 14%
COC(=O)CC1COc2ccccc2N1C(=O)/C=C/c1ccccc1 (centres undefined) | -6%
Cc1ccc(NC(=O)COC(=O)/C=C/c2c(C)nn(-c3ccc(F)cc3)c2Cl)cc1F | 8%
COc1ccccc1N1CCN(c2ccc(-c3nc(-c4ccccc4)no3)cc2[N+](=O)[O-])CC1 | 9%
O=C(CNc1ccccc1N1CCCC1=O)Nc1cc(Cl)ccc1-n1cncn1 | -9%
CC1(C)CC(C(=O)Nc2nccs2)CCO1 (centres undefined) | 0%
CCCCn1c(N)c(N(CC)C(=O)c2ccc(Cl)c(Cl)c2)c(=O)[nH]c1=O | -6%

# An excerpt of these results, with the structure last.
VDR inh	molecule
-6%	COC(=O)CC1COc2ccccc2N1C(=O)/C=C/c1ccccc1 (centres undefined)
8%	Cc1ccc(NC(=O)COC(=O)/C=C/c2c(C)nn(-c3ccc(F)cc3)c2Cl)cc1F
9%	COc1ccccc1N1CCN(c2ccc(-c3nc(-c4ccccc4)no3)cc2[N+](=O)[O-])CC1
-9%	O=C(CNc1ccccc1N1CCCC1=O)Nc1cc(Cl)ccc1-n1cncn1

# (further entries)
Structure | VDR inh
Cc1ccc(CNC(=O)Cn2c(=O)n(-c3cccc(Cl)c3)c(=O)c3sc4ccccc4c32)cc1 | 0%
COc1cccc(Nc2ncc3ncc(=O)n(CCC#N)c3n2)c1 | 4%
CC(=O)N1CCc2cc(S(=O)(=O)CCC(=O)NCCc3ccc(Cl)cc3)ccc21 | 6%
Cc1ccc(S(=O)(=O)N2CCC[C@H]2C(=O)OCC(=O)Nc2ccc3c(c2)OCO3)cc1 | 8%
O=C(NCc1ccc(Cl)cc1)C1CCN(c2nn3cc(-c4ccc(F)cc4)nc3s2)CC1 | -5%
Cc1ccc(-n2nc(C(=O)Nc3cccc(C#N)c3)c3c4ccccc4n(C)c3c2=O)cc1 | -22%
O=C1CC(N(O)c2ccccc2)C(=O)N1c1ccc(Cl)c(Cl)c1 (centres undefined) | -11%
CCC(C)[C@H](NC(=O)c1cn(CC)c2cc3c(cc2c1=O)OCO3)C(=O)NCCCn1ccnc1 (some centres undefined) | -4%
COc1cc(C)nc(N2CCC(C(=O)NCC3CCCO3)CC2)n1 (centres undefined) | 4%
CC(C)c1ccc(C2=CC(c3ccc(C(C)C)cc3)n3nnnc3N2)cc1 (centres undefined) | 9%
COc1ccc2c(-c3ccccc3)cc(=S)[nH]c2c1 | ?
CCC(C)(C)n1nnnc1C(c1ccccn1)N1CCCCC1 (centres undefined) | 3%
CC(C)(C)c1cc(N2CCOCC2)n2ncc(-c3ccc(Cl)cc3)c2n1 | 5%
CC(NC(=O)CCc1nnc(-c2ccccc2)o1)c1ccccc1 (centres undefined) | ?
Cc1ccc(OCC(=O)NC2=NCCS2)cc1 | -5%
CCOC(=O)CSc1nc2cc(S(=O)(=O)Nc3ccccc3OC)ccc2o1 | 11%
CC(C)(O)C#Cc1ccc(C(=O)NCCC(=O)O)s1 | 3%
COc1ccc(CNC(=O)Cn2c(=O)oc3cc(S(=O)(=O)NCc4ccccc4)ccc32)cc1 | 12%
OCCC1CN(Cc2ccc3nonc3c2)CCN1Cc1ccsc1 (centres undefined) | -11%
Oc1ccc(COCc2ccccc2)c2cccnc12 | 3%
O=C1NN(c2ccc(Cl)c(Cl)c2)C(=O)/C1=C/c1ccc(-c2ccccc2C(=O)O)o1 | 45µM*
Cc1ccc(C(=O)n2c(-c3ccccc3)cnc2SCC(=O)Nc2ccc(C)cc2C)cc1 | -20%
COc1cc(C(=O)c2ccccc2C(=O)O)c(OC)c2c1CCCC2 | -3%
COc1ccccc1NC(=O)c1oc2ccccc2c1NC(=O)COc1ccccc1OC | -7%
c1csc(CNc2cc(-c3ccoc3)ncn2)c1 | 20µM*
CCOC(=O)C1CCCCN1Cc1ccccc1C(F)(F)F (centres undefined) | -11%
O=[N+]([O-])c1cccc(N(CC2CO2)S(=O)(=O)c2ccccc2)c1 (centres undefined) | -6%
O=C(COc1cc(Cl)c(Cl)cc1Cl)NCCN1CCOCC1 | -1%
CC(C)NC(=O)C1=NN(c2ccccc2)C(=O)CC1 | -12%
